Sa RN4220 lethal: S. aureus RN4220 growth inhibition | OD600, 16 h | inhibition, % (concentration not given with the values) | 330,000 compounds, 0.33% hits | AID 1259311;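 active = z-score of -3 or lower and OD600 up to 0.18 on both plates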;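 note: plate controls were untreated cells for no effect and reference antibiotic for full effect; stock transfer was 100 nL into about 80 µL; one replicate is shown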
Bead autofluor: counter-screen for toxin protease inhibitors: compound fluorescence | compound autofluorescence counterscreen, microsphere flow cytometry; hits give high values | fluorescence intensity (no concentration beside the values) | 360,000 compounds, 3.1% hits;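 active = at least 3 SD above the mean of all compounds, about 16000 in these data; inconclusive = too few beads counted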;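 note: 100 nL of 1 mM stock went into each well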
PrP 5UTR inh: suppresses PrP 5' UTR mRNA reporter expression; cell-based PrP 5' UTR mRNA reporter, plate reader; inhibition, % (test concentration not listed); 340,000 compounds, 0.35% hits; AID 488862;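 active = every replicate at 50% or more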;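 note: 0 = median of the neutral control wells; tested in H4 reporter cells; numbers are from one replicate; inactives centre near -14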
Sa ugtP lethal: kills S. aureus RN4220 lacking UgtP; S. aureus RN4220 ugtP deletion, OD600 growth, 16 h; some inactives read as strong as hits; growth inhibition, % (no concentration beside the values); 330,000 compounds, 0.54% hits;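 active = z-score under -3 and OD600 up to 0.15 on both plates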;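 note: plate controls were untreated wells for no effect and antibiotic for full effect; wells of about 80 µL received 100 nL stock; the first replicate is given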
BJeLR viability: BJeLR cell viability loss. BJeLR (HRASV12) viability, CellTiter-Glo ATP luminescence, 48 h; reference of the scale not given here. inhibition, % (test concentration not listed). 300,000 compounds, 0.17% hits. AID 1554;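 active = replicate mean above 50%; inconclusive = above 50% but judged a plate artefact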;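 note: 50 nL library stock added to about 25 µL; numbers are from one replicate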
Mtb hypoxia rep: inhibitors of hypoxia-regulated fluorescent reporter in Mycobacterium tuberculosis; M. tuberculosis hypoxia-regulated fluorescent reporter, fluorescence; fluorescence inhibition, % (no concentration beside the values); 300,000 compounds, 0.1% hits; AID 1159583;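 active = 35 to 45% if threefold the growth effect, above 45% if 1.5-fold the growth effect; inactive = the rest, general growth blockers included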;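 note: wells of about 50 µL received 100 nL stock; 0% = vehicle wells and 100% = reference inhibitor wells; whole bacteria with a GFP reporter of the hypoxia response; strong numbers were not always called active; many hits fall short of the cut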
Mtb hypoxia rep growth: recorded beside Mtb hypoxia rep, whose call it bears; growth inhibition, %; measured here: M. tuberculosis growth (absorbance);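 0% = vehicle and 100% = reference antibiotic; read after six days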
Starred values were filed as active, the others as inactive; ? = inconclusive; . = no result given; & = joins results of further samples.

SMILES	Sa RN4220 lethal	Bead autofluor	PrP 5UTR inh	Sa ugtP lethal	BJeLR viability	Mtb hypoxia rep	Mtb hypoxia rep growth
COc1cc(C=Nn2c(-c3cc(C)[nH]n3)n[nH]c2=S)cc(OC)c1OC	1.6	.	.	-6	.	-1	11
O=C(N1CCCCC1)N1CCN(S(=O)(=O)c2ccc(Cl)cc2)CC1	7.5	2500	-11	-2	2	6	8
NNC(=O)c1snnc1-c1ccccc1	7.2	6012	6	12	-14	10	1
CCn1c(CNC(=O)c2ccccc2F)nnc1SCC(=O)NC1CCCCC1	3.0	2241	-25	6	-1	13	6
CC(C)c1ccc(NC(=O)C[n+]2ccn(C3=C([O-])c4ccccc4C3=O)c2)cc1	2.7	4399	-13	3	-3	-9	7
O=S(=O)(/C=C/c1ccccc1)NC1CCCCCC1	10	3527	-38	-16	-5	8	2
COc1ccc(N2CC(O)=C(c3nc(-c4ccc(F)cc4)cs3)C2=N)cc1Cl	5.5	4073	-14	2	-5	0	1
CCOC(=O)Cn1cc(C=NNC(=O)CC#N)c2ccccc21	-0.1	.	.	13	.	9	6
O=C1C(=O)N(CCCn2ccnc2)C(c2ccc(Br)cc2)/C1=C(\O)c1ccc2c(c1)OCCO2 (stereo unspecified)	-4.3	4083	-15	-6	-6	-3	-2
CC(C)c1nc(SCC(=O)Nc2nccs2)c2ccccc2n1	3.1	5869	5	-3	-10	10	0
COC(=O)c1sc(NC(=O)C2c3ccccc3Oc3ccccc32)c(C(=O)OC)c1C	-3.1	2585	-22	31	-3	0	-5
Cc1[nH]c2ccccc2c1C(=O)C(=O)N1CC=C(c2ccccc2)CC1	11	2814	5	-1	1	-8	10
Cc1ccc(SCCNC(=O)/C=C/c2ccc(Cl)cc2)cc1	.	2030	-2	.	-6	.	.
COc1ccc(C=NNC(=O)c2ccccc2O)cc1COc1ccccn1	2.6	.	.	7	.	12	6
CC(CC(=O)Nc1ccc([N+](=O)[O-])cc1)=NNC(=O)c1ccccc1O	8.9	.	.	-3	.	3	-1
Cc1c(CN2CCC(n3nccc3NC(=O)C3CC3)CC2)[nH]c2ccccc12	3.6	.	-21	5	2	4	-1
O=C1CCCN1CCC1CCN(C(=O)Nc2ccccc2)CC1	0.0	11381	-15	3	-2	6	12
CCN(C(=O)N1CCOCC1)c1ccccc1C	6.0	3383	-15	9	-11	14	10
CCCCNC(=O)C(=O)NCc1ccncc1	1.4	5778	.	-6	-5	10	12
CCOC(=O)C(CCc1ccccc1)NC(C)C(=O)N1CCCC1C(=O)O (stereo unspecified)	4.6&4.4&8.7	.	.	-7&1&0	.	6&3&-2	-2&10&4
CCCCC[C@@H]1C=C(C(=O)O)[C@H](c2ccc(Cl)c(Cl)c2)N1S(=O)(=O)c1ccc(C)cc1	28	3587	-28	19	.	-4	3
COc1cc(-c2nc3ccc4ccccc4c3c3c2CCC3)cc(OC)c1O	-1.2	2319	7	62	-14	4	-4
CCn1ccnc1CNC(=O)C1CCC(=O)N(Cc2ccccc2F)C1 (stereo unspecified)	1.4	4208	1	4	3	5	0
COc1ccc(CNC(=O)N2CCN(c3cccc(Cl)c3)CC2)cc1OC	-0.7	4585	-2	6	-5	13	3
Cc1ccc(-n2c(C)cc(C=NNC(=O)c3ccncc3)c2C)cc1	-0.7	.	.	-2	.	8	15
O=C(CC1S/C(=N/N=C/c2cccs2)NC1=O)Nc1ccc(Cl)c(Cl)c1 (stereo unspecified)	.	2078	-10	.	9	.	.
C=CCN1C(=O)c2ccc(C(=O)N(C)CC(=O)Nc3ccccc3Cl)cc2C1=O	3.5	5728	3	0	2	-10	8
NS(=O)(=O)c1ccc(CCNC(=O)CNCCc2ccc(C(F)(F)F)cc2)cc1	1.5	3262	12	7	3	12	0
CCOC(=O)C1CCN(C(=O)c2ccccc2NS(=O)(=O)c2ccc(F)cc2)CC1	2.9	2597	-4	2	3	-8	15
N#CC(C#N)=C1C=CC=CN1/C(=C\c1ccco1)C(=O)c1ccc(Br)cc1	99*	2121	-10	98*	.	8	9
O=C(NCCS(=O)(=O)NC1CCCC1)c1ccc(F)cc1	2.2	.	-20	8	-11	-2	-3
N=C(N)SCc1cn2ccccc2n1	3.1	2258	-14	0	0	8	-3
CCn1c(=O)c(C(=O)NCCCc2ccccc2)c(O)c2ccccc21	-0.4	3279	-14	21	-1	18	5
CSc1nsc(N/N=C/c2ccc3c(c2)OCO3)c1C#N	.	4326	-57	.	6	.	.
NC(=O)c1ccccc1NC(=O)CN1CCOCC1	3.3	10118	-14	-2	-12	6	5
CCOC(=O)Cc1csc(NC(=S)NC(=O)c2cc(OC)cc(OC)c2)n1	-0.9	4443	-26	10	5	6	10
O=C(Cc1ccc(Cl)c(Cl)c1)Nc1ccccc1N1CCCC1	9.3	5748	4	-1	1	9	8
O=C(CN1C(=O)/C(=C\c2cccc(Cl)c2)Sc2ccccc21)NCCCN1CCOCC1	0.4	.	-14	5	2	2	-6
O=C(CN1CCN(S(=O)(=O)c2cccc(Br)c2)CC1)N1CCCCC1	0.1	2978	-23	1	.	4	6
COc1cc(OC)cc(C(=O)N2CCN(S(=O)(=O)c3ccc(Cl)s3)CC2)c1	-2.9	2934	-14	-1	.	-5	-10
COc1cccc(/C=N/NC(=O)C(=O)Nc2ccccc2OC(F)(F)C(F)F)c1O	.	2480	6	.	7	.	.
Cc1ccc(N=Nc2c(=O)[nH]n3c(C)cc(C)nc23)cc1	4.9	2819	-12	14	-3	10	2
O=C(NC(Cc1ccccc1)c1nc2ccccc2[nH]1)c1cccc([N+](=O)[O-])c1 (stereo unspecified)	6.7	4128	-3	12	10	12	8
CC1CCN(C(C)C(=O)Nc2ccccc2-c2ccccc2)CC1 (stereo unspecified)	-0.6	3776	-22	2	2	5	6
COc1ccc(C2(C(=O)N3CCCC3)CCOCC2)cc1OC	-0.4	6018	-23	-7	14	-3	4

Quoted from the entries so far for reference:
SMILES	Sa RN4220 lethal	Bead autofluor	PrP 5UTR inh	Sa ugtP lethal	BJeLR viability	Mtb hypoxia rep	Mtb hypoxia rep growth
NC(=O)c1ccccc1NC(=O)CN1CCOCC1	3.3	10118	-14	-2	-12	6	5
CCOC(=O)Cc1csc(NC(=S)NC(=O)c2cc(OC)cc(OC)c2)n1	-0.9	4443	-26	10	5	6	10
O=C(Cc1ccc(Cl)c(Cl)c1)Nc1ccccc1N1CCCC1	9.3	5748	4	-1	1	9	8
O=C(CN1C(=O)/C(=C\c2cccc(Cl)c2)Sc2ccccc21)NCCCN1CCOCC1	0.4	.	-14	5	2	2	-6

Other structures
SMILES	Sa RN4220 lethal	Bead autofluor	PrP 5UTR inh	Sa ugtP lethal	BJeLR viability	Mtb hypoxia rep	Mtb hypoxia rep growth
COc1ccc2cc(C(=O)OC(C)C)sc(=O)c2c1OC	-7.7	2868	-15	-4	-1	7	8
CCOC(=O)c1ccc(-n2cccc2C=C2NC(=O)NC2=O)cc1	4.2	.	.	0	.	5	3
COc1ccc(Cl)cc1-c1nc(SCC(N)=O)n[nH]1	4.0	4625	-24	5	-14	21	6
C=C1CCN([C@@H](Cc2ccccc2)C(=O)NCCC(C)C)S(=O)(=O)c2ccccc21	.	3125	9	.	13	.	.
O=C(N/C(=C\c1ccc([N+](=O)[O-])cc1)C(=O)N1CCCCC1)c1ccccc1Br	3.6	2452	-23	-8	0	.	.
CCOC(=O)CC(C(=O)OCC)P(=O)(c1ccccc1)c1ccccc1 (stereo unspecified)	-5.0	2036	-27	-2	-4	.	.
Cc1ccsc1C(=O)OCC(=O)Nc1c(C)n(C)n(-c2ccccc2)c1=O	4.8	2417	-9	0	-8	10	7
CN(CC(=O)Nc1ccc([N+](=O)[O-])cc1Br)Cc1c(F)cccc1Cl	6.1	5861	-18	7	-4	9	14
CCCCN(C)C1CCN(C(=S)Nc2cccc(OC)c2)CC1	2.1	4320	-21	-6	-2	1	-7
O=C(c1c(Cl)cccc1Cl)N1CCN(c2cccc3[nH]ccc23)CC1	0.6	6206	-30	10	13	11	5
Cc1ccc(Cl)cc1NC(=O)C1CCCN(c2cnccn2)C1 (stereo unspecified)	2.4	4416	-20	5	7	4	4
Cc1nn(-c2ccccc2)c(N2CCCC2)c1/C=N/NC(=S)Nc1ccc(F)cc1	.	4408	-3	.	-7	.	.
Cc1ccc(C(=O)CC(C(=O)O)n2ccc(C)n2)cc1 (stereo unspecified)	-3.7	3769	-12	3	5	.	.
COc1ccc(C)cc1NS(=O)(=O)c1ccc2c(c1)CCN2C(C)=O	7.5	4142	0	-4	4	2	5
CCCCn1c(O)c(C(CC)=NCCN2CCOCC2)c(=O)[nH]c1=O	4.0	8233	-9	10	1	4	1

Entries of single compounds, looked up by structure. Order of values: Sa RN4220 lethal	Bead autofluor	PrP 5UTR inh	Sa ugtP lethal	BJeLR viability	Mtb hypoxia rep	Mtb hypoxia rep growth
`O=C(N/C(=C\c1ccc([N+](=O)[O-])cc1)C(=O)N1CCCCC1)c1ccccc1Br` as listed: 3.6	2452	-23	-8	0	.	.
`CCOC(=O)c1ccc(-n2cccc2C=C2NC(=O)NC2=O)cc1` as listed: 4.2	.	.	0	.	5	3
`Cc1ccc(C(=O)CC(C(=O)O)n2ccc(C)n2)cc1` (stereo unspecified) as listed: -3.7	3769	-12	3	5	.	.
`CCOC(=O)CC(C(=O)OCC)P(=O)(c1ccccc1)c1ccccc1` (stereo unspecified) as listed: -5.0	2036	-27	-2	-4	.	.
`COc1ccc(Cl)cc1-c1nc(SCC(N)=O)n[nH]1` as listed: 4.0	4625	-24	5	-14	21	6

Following part:
SMILES	Sa RN4220 lethal	Bead autofluor	PrP 5UTR inh	Sa ugtP lethal	BJeLR viability	Mtb hypoxia rep	Mtb hypoxia rep growth
COc1ccc(S(=O)(=O)Nc2ccccc2C)cc1	11	3596	4	4	4	1	-5
Cc1ccc(C)c(NC(=O)CCN2CCN(c3ccccc3F)CC2)c1	3.2	3975	0	4	6	7	1
CCOc1ccc(NC(=O)CN2CCc3cc4c(cc3C2)OCCCO4)cc1OCC	0.0	?	8	4	-12	4	3
CCCNC(=O)c1cc(-c2ccc3c(c2)OCO3)on1	-1.0	3577	-23	7	5	-8	-1
CCC[n+]1c2ccccc2cc2ccccc21	.	3616	-14	.	-6	.	.
CSCCC(N=C(NS(=O)(=O)c1ccccc1)c1ccccc1)C(=O)O (stereo unspecified)	2.4	.	-12	7	0	4	17
COc1nnc(-c2ccccc2)s1	6.7	11177	6	7	1	3	0
Cc1cc(OCC(=O)O)c2cccc(C)c2n1	3.1	3776	-19	0	4	8	8
Cc1[nH]nc2c1C(c1ccc(O)cc1)C1=C(CC(C)(C)CC1=O)N2 (stereo unspecified)	4.7	3996	-12	6	-7	6	5
O=C(O)c1ccc(NC(=O)c2cccc(C(=O)Nc3ccc(C(=O)O)cc3)c2)cc1	2.2	2892	-16	-2	0	-17	-2
CN1CCN(S(=O)(=O)c2cccc(C(=O)Nc3sc4c(c3-c3nc5ccccc5[nH]3)CCCC4)c2)CC1	.	2414	-33	.	-4	.	.
COc1cc(NC(=S)N2CCC(C(N)=O)CC2)c(OC)cc1Cl	2.4	2484	-24	-7	1	4	3
O=S1(=O)CCC(NC(=S)N2CCOCC2)C1 (stereo unspecified)	4.5	3451	0	4	-2	6	14
Nc1nc(N2CCN(c3ccc(Cl)cc3)CC2)n[nH]1	-0.9	4536	-23	2	1	8	3
CCOC(=O)c1ccc(S(=O)(=O)NC2CC2)cc1	7.2	5706	-9	-8	-7	-8	2
CCOc1ccc(S(=O)(=O)n2nnc3ccccc32)cc1C	-0.1	.	.	0	4	.	.
O=c1[nH]c(=O)n(Cc2ccco2)c(O)c1C=NCCN1CCNCC1	2.6	3958	-9	8	3	1	5

Quoted at random: 3 entries already listed, in no set order.
SMILES	Sa RN4220 lethal	Bead autofluor	PrP 5UTR inh	Sa ugtP lethal	BJeLR viability	Mtb hypoxia rep	Mtb hypoxia rep growth
COc1cc(NC(=S)N2CCC(C(N)=O)CC2)c(OC)cc1Cl	2.4	2484	-24	-7	1	4	3
CCOc1ccc(S(=O)(=O)n2nnc3ccccc32)cc1C	-0.1	.	.	0	4	.	.
Cc1ccc(C)c(NC(=O)CCN2CCN(c3ccccc3F)CC2)c1	3.2	3975	0	4	6	7	1

An unsorted share of the library. Share with any hit: about 4%.
